Six1-Eya2 blk: blocks human Six1 binding to Eya2. Q15475+O00167. AlphaScreen GST-Six1/His-Eya2 binding, biochemical; hits give low values; control for the full effect not named in the record. activity change, % (concentration not given with the values). 0.56% of 360,000 active; in the data active = activity change below about -65%; inconclusive = about -30% to -65%; inactive = above about -30%; note: % is set by controls: 0 for no effect and ±100 for the full control effect
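Homogeneous AlphaScreen proximity assay pairing GST-Six1 with His-tagged Eya2 (added as 5X mix: 250 nM and 500 nM) in 50 mM Tris pH 8.0, 300 mM NaCl, 1 mM TCEP. Glutathione donor and nickel acceptor beads; 1 h, 37 °C, dark.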
PINK1 modulator: modulators of PINK1 expression; PINK1 immunofluorescence, high-content cytometry, 24 h; Potency, µM (highest dose often 76.6 µM), inactives show top-dose activation (PINK1 increase), actives largely listed as activators; 0.2% of 410,000 active; AID 624263; active = well fitted activation curve with a large enough effect; inconclusive = small, poorly fitted or top-dose-only effect; inactive = flat fitted curve, though single readings scatter; cell line not stated here;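 note: potency is the fitted concentration of half-maximal effect; % of control where 0% means no effect; nearly all actives have a fitted effect of over 65% in size; a mitochondrial uncoupler was the plate control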
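Fluorescence from anti-PINK1 antibody, together with nuclear and cell stains, was scanned on a laser-scanning cytometer. Before staining, stable-line cells were incubated 24 hours with compounds at 5 concentrations; primary antibody 12 h at 10 degrees C.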
D2 agonist: agonists of human D2 dopamine receptor (beta-arrestin) | 0.084% of 360,000 active | activation, % (test concentration not listed) | P14416 | DiscoveRx PathHunter D2 beta-arrestin, luminescence, 90 min; 100% = 57 uM dopamine signal | AID 624465; in the data active = activation above about 40%; inconclusive = about 15% to 40%; inactive = below about 15%; note: compound concentration not given in the record; the text of the record calls up to 30% inactive
Target sequence (P14416 whole entry, looked up): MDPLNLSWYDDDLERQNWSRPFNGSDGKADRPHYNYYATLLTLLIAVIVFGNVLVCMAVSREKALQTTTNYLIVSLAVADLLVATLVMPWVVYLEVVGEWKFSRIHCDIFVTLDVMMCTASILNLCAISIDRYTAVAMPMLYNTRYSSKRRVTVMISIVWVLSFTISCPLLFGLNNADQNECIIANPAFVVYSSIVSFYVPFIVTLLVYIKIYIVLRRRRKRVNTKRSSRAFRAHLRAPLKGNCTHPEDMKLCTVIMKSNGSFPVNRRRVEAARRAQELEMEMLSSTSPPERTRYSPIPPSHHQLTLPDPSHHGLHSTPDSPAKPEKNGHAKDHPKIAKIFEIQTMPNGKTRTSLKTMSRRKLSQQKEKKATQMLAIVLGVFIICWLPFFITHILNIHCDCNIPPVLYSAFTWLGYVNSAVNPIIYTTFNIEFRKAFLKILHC
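Agonist mode: compounds alone added to overnight-plated D2 PathHunter cells for 90 min at 37 C, with 57 uM final dopamine (EC100) defining full response. Beta-arrestin recruitment detected by chemiluminescent reagent, read after 1 h at ambient temperature.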
Sfp inh: inhibitors of Bacillus subtilis Sfp phosphopantetheinyl transferase; Q9F4F7; Biochemical Sfp PPTase activity, qHTS; Potency, µM, without a hit: max response, negative = inhibition, most hits filed as inhibitors; 3.5% of 310,000 active; active = well fitted inhibition curve with a large enough effect; inconclusive = small, poorly fitted or top-dose-only effect, or another doubt; inactive = no such curve, though single readings can be large or run the other way;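 note: the enzyme is Sfp with the accession as filed and its product quenches rhodamine fluorescence; potency is the fitted concentration of half-maximal effect; 0% = enzyme reaction without inhibitor and -100% = no enzyme wells; top concentration of the series not given in the record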
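Sfp 15 nM + cpd, 15 min RT; start w/ rhodamine-CoA 5 uM, BHQ-2-YbbR 12.5 uM (final); 50 mM Hepes pH 7.6, 10 mM MgCl2, 0.01% NP-40, 0.01% BSA; read 525/598 nm at 0 and 30 min.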
TRPV1 PAM: enhances activation of the human vanilloid receptor TRPV1 | TRPV1-expressing cells, Fluo-8 calcium influx, capsaicin EC20 potentiation; host cell line not named in the record; control for the full effect not named in the record | potentiation, % at 8.33 µM | 0.02% of 320,000 active; active means potentiation above 80%; inconclusive means 30% to 80%; inactive means below 30%; note: 0% is about no effect
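Cells expressing TRPV1 were dye-loaded with Fluo-8 and read kinetically: 10 s baseline, 3 min after compound (agonist portion), then 2 min after EC20 capsaicin (allosteric enhancer portion). Calcium-bound dye fluorescence at 480/520 nm.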
D2 potentiator: human D2 receptor positive allosteric modulation; 0.23% of 360,000 active; AID 624464; P14416; DiscoveRx D2 beta-arrestin cells, luminescence, 90 min; 100% = 57 uM dopamine signal; potentiation, % (test concentration not listed); active = potentiation of 50% or more; inconclusive = 30% to 50%; inactive = 30% or less;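 note: compound concentration not given in the record; tested on top of an EC20 dose of dopamine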
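D2 cells co-treated with compound plus 50 nM dopamine (EC20) for 90 min at 37 deg C to detect potentiation. Beta-arrestin recruitment was read as enzyme-fragment luminescence after 1 h at ambient temperature. Full response was set by 57 uM dopamine.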
CtBP-E1A inh: CtBP/E1A binding inhibition | AlphaScreen GST-E1A/His-CtBP binding, 1536-well; hits give low values; control for the full effect not named in the record | activity change, % (concentration not given with the values) | 0.49% of 340,000 active; in the data active means activity change below about -65%; inconclusive means about -30% to -65%; inactive means above about -30%; note: % is set by controls: 0 for no effect and ±100 for the full control effect
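Steps: dispense buffer (Tris pH 8.0, NaCl 300 mM, TCEP 1 mM, BSA, Tween 20); add 5X protein mix (GST-E1A, His-CtBP, 125 nM each); pin 23 nL compound; 2 h at 37 °C, dark; add 5X beads (50 ug/mL); 1 h; read.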
An asterisk follows results filed as active; ? = inconclusive; nt = not tested or not shown; & = joins results of further samples; [ ] = dose if it differs, or a comment. Compounds as they come; any-hit rate near 3.7%.

molecule,Six1-Eya2 blk,PINK1 modulator,D2 agonist,Sfp inh,TRPV1 PAM,D2 potentiator,CtBP-E1A inh
O=C(CCNC(=O)c1ccc([N+](=O)[O-])cc1)NCc1cccs1,1,-2.0%,-0.4,nt,nt,-26,1
CCOC(=O)Cc1csc(NC(=O)Nc2cccc(OC)c2)n1,-4,1.4%,-0.7,23%,-5,3,8
O=c1[nH]c2cc3c(cc2cc1C(c1nnnn1CC1CCCO1)N1CCCC1)OCO3 (centres undefined),-2,2.3%[38.3 µM],1.0,-10%,4,-2,-3
CCSc1nc2ccc(N3C(=O)C4C5C=CC(C5)C4C3=O)cc2s1 (centres undefined),-3,4.7%,0.1,4%,13,-12,2
NC(=O)Nc1ccc(Oc2c(F)c(F)c(F)c(F)c2F)cc1,7,-1.1%,-1.5,10%,1,-1,-3
COc1ccccc1C(=O)NC(CCSC)C(=O)NNC(=O)c1ccc(F)cc1 (centres undefined),1,1.5%,-2.2,16%,12,-12,7
CCn1cc(CN2CCC(C(=O)Nc3cccc(-c4cccc(OC)c4)c3)CC2)c(C)n1,0,-2.7%,-5.7,13%,2,-41,1
CN1C(=O)CC(NNC(=O)c2ccccc2)C1=O (centres undefined),4,2.6%,-1.7,-1%,2,-11,5
Cc1ccccc1CSCCNC(=O)CCSc1ccccc1,2,-1.9%,-1.7,-12%,-17,-6,-8
CCN(CC)Cc1c(O)ccc2occ(C(=O)c3ccc(OC)cc3)c12,3,1.6%,-2.5,-5%,-10,14,-9
N#C/C(=C\c1ccc(N2CCCCC2)o1)C(N)=O,-21,?,-2.8,-5%,2,-8,-11
COCCCn1c(=O)c2sccc2n2c(CCCC(=O)NCc3ccccc3)nnc12,0,0.2%,-3.8,14%,15,2,1
O=C(c1n[nH]c2ccccc12)N1CCN(S(=O)(=O)c2ccc3ccccc3c2)CC1,-12,nt,-1.2,3%,-2,-15,-4
CC(C)c1ccc(S(=O)(=O)/N=C2/C=C(Sc3ncn[nH]3)C(=O)c3ccccc32)cc1,3,-0.6%,?,2µM*,-1,?,-12
COc1ccc(CN2CC(C(=O)NCC3CCCO3)CC2=O)cc1 (centres undefined),5,8.2%[38.3 µM],-0.6,5%,18,3,2
COCCCn1c(C(C)C)nc2oc3cc(OC)ccc3c(=O)c2c1=O,-3,-0.4%,-3.5,17%,-8,-11,1
CC(=O)Nc1c([N+](=O)[O-])cc(C)c(Cl)c1[N+](=O)[O-],1,0.3%,14,18%,-4,16,0
CC(C)Oc1ccc(N2CC(C(=O)Nc3ccc(N4CCOCC4)cc3)CC2=O)cc1 (centres undefined),4,2.0%,-7.8,-1%,-14,?,0
CCCc1cc(=O)oc2cc(C)cc(OCC(=O)N[C@@H](CSCc3ccccc3)C(=O)O)c12,-10,0.1%,3.6,8%,7,15,-6
c1ccc(-c2nnc(-c3c[nH]c4ccccc34)nc2-c2ccccc2)cc1,-13,10%,-2.8,13%,-16,-8,-12

Some of these compounds in order of the Six1-Eya2 blk value, smallest number first.
SMILES,Six1-Eya2 blk
c1ccc(-c2nnc(-c3c[nH]c4ccccc34)nc2-c2ccccc2)cc1,-13
CCSc1nc2ccc(N3C(=O)C4C5C=CC(C5)C4C3=O)cc2s1 (centres undefined),-3
CC(=O)Nc1c([N+](=O)[O-])cc(C)c(Cl)c1[N+](=O)[O-],1
CCN(CC)Cc1c(O)ccc2occ(C(=O)c3ccc(OC)cc3)c12,3
COc1ccc(CN2CC(C(=O)NCC3CCCO3)CC2=O)cc1 (centres undefined),5

Remaining list, next part
molecule,Six1-Eya2 blk,PINK1 modulator,D2 agonist,Sfp inh,TRPV1 PAM,D2 potentiator,CtBP-E1A inh
COc1ccc(C(O)c2nc(-c3cccc(C(C)C)c3)cs2)cc1 (centres undefined),2,5.8%,-0.8,nt,nt,1,9
Cc1ccc(NC(=O)c2ccc(S(=O)(=O)N3CC(C)CC(C)C3)cc2)cc1S(=O)(=O)N1CCOCC1 (centres undefined),-2,4.4%,-1.6,nt,nt,1,-18
COc1ccc(CCNC(=O)CCc2ccc(S(=O)(=O)NCC(C)C)cc2)cc1,5,1.5%,-2.6,9%,9,-4,15
CC(C)[N+]1(C)[C@@H]2CC[C@H]1CC(OC(=O)C(CO)c1ccccc1)C2 (some centres undefined),-3&6&5,-0.6%&-0.5%&0.5%,-3.9&1.4&-1.5,?,-3&3&-1,-7&-8&-4,4&-13&6
COC(=O)C1(Cc2cc(-c3ccc(OC)cc3OC)no2)CCN(C(=O)OC(C)(C)C)CC1,-8,0.2%,1.7,-2%,-15,-5,6
O=C(Cn1c(CO)nc2ccccc21)NCc1ccc2c(c1)OCO2,-2,4.3%,-2.0,9%,-2,0,3
COc1ccc(C2CC(c3ccccc3)Nc3nc(NC(=O)c4ccco4)nn32)cc1 (centres undefined),-8,-0.7%,-4.4,-5%,-3,-7,-5
COc1cccc2c1OC1(C)CC2N(C(=O)c2ccco2)C(=S)N1c1ccc(F)cc1 (centres undefined),-10,-1.0%,-2.4,9%,-14,-16,-4
CC1CCCC(C)N1C(=O)CSc1nc2c(c(=O)n(C)c(=O)n2C)n1C (centres undefined),-2,7.8%,-1.1,9%,-4,-2,3
CC(=O)Nc1c([N+](=O)[O-])cc2c3c(cccc13)CC2,-3,0.5%,-5.6,nt,nt,0,0
CCCNC(=O)C1(C)CCN1C(=O)Cc1ccc(C(C)C)cc1 (centres undefined),5,0.9%,-3.0,nt,nt,2,12
C/C(=N/Nc1nc(C)cc(-c2ccccc2)n1)c1ccco1,-2,0.8%,-5.8,-12%,-8,-30,-4
O=C(c1cccnc1)N(Cc1ccccc1)c1ccccc1,0,11%[38.3 µM],-2.8,6%,7,3,49
CCCCC1CCC(C(=O)OCC(=O)N(CCOC)c2c(N)n(Cc3ccccc3)c(=O)[nH]c2=O)CC1 (centres undefined),-5,-1.9%,-4.7,nt,8,-11,0
Cc1cccc(/C=N/NC(=O)C2CCCNC2=O)c1 (centres undefined),14,-0.8%,-3.7,-3%,-1,-16,5
O=C(NNC(=O)c1ccco1)c1ccccc1,-4,0.1%,-0.4,25%,-10,1,7
CCOC(=O)c1nnsc1N,0,-0.8%,-1.1,26%,6,2,11
COC(=O)c1nc2n(n1)C(c1ccc(OC)c(OC)c1)C(C(=O)OC1CCCCC1)=C(C)N2 (centres undefined),2,-2.0%,-1.9,4%,-11,-3,6
O=C(CCN1C(=O)c2ccccc2C1=O)NC(=S)Nc1cccc(Cl)c1,-7,-1.1%,1.7,7%,7,-14,-7
CCCC1Cc2nc(Cl)c(C#N)cc2CO1 (centres undefined),4,-1.8%,-8.4,3%,17,-1,0

Continuation.
molecule,Six1-Eya2 blk,PINK1 modulator,D2 agonist,Sfp inh,TRPV1 PAM,D2 potentiator,CtBP-E1A inh
CN1CCN(C2=C(Cl)C(=O)N(CCc3ccccc3)C2=O)CC1,-7,-0.8%,-4.8,14%,-28,-42,-3
O=c1cc(CSc2ccccc2)[nH]c(=S)[nH]1,2,-1.0%,-2.4,-29%,4,-15,6
COc1ccc(-c2cc(=O)oc3cc(OC(C)C(=O)NCC4CCC(C(=O)O)CC4)ccc23)cc1 (centres undefined),-24,0.3%,-4.5,18%,-14,-3,-7
CCCCNC(=S)NNC(=O)CCn1cc(C)cn1,-4,-1.5%,-6.9,35%[activator],9,-36,-5
COc1ccc(-c2cn(Cc3ccc(C(N)=O)cc3)c(-c3ccncc3)n2)cc1,-3,-0.1%,0.0,nt,-3,-10,-8
CC(=O)Nc1ccc(NC(=O)CSc2nnc(N)n2-c2ccccc2)cc1,1,1.3%,2.0,nt,nt,-2,-21
COc1cccc(NC(=O)CN(c2cccc(F)c2)S(C)(=O)=O)c1,4,nt,-0.9,13%,23,-16,2
Cc1ccc([N+](=O)[O-])cc1NC(=O)Cc1ccc(F)cc1,-19,4.3%,1.6,6%,3,-9,-10
COC(=O)c1ccccc1NC(=O)CN1CCCCC1,6,-1.3%,-7.4,6%,-3,-10,-7
C/C(=N\NS(=O)(=O)c1ccc(C)cc1)c1ccc(C)o1,15,-1.8%,1.2,7%,6,0,6
Cc1nn(Cc2c(F)c(F)c(F)c(F)c2F)c(C)c1NC(=O)c1ccc(COc2ccccc2Cl)o1,-5,0.7%,-1.3,6%,30,-3,-6
CN1CCN(C2CN(Cc3ccc(F)cc3)S(=O)(=O)C2)CC1 (centres undefined),1,-0.5%,-1.7,nt,nt,-9,-7
CCc1ccc(-c2cc(C)no2)cc1S(=O)(=O)N1CCN(c2cccc(C)c2C)CC1,-2,3.8%,1.6,2%,-6,-2,2
CC1(C)CC[C@]2(CO)CC[C@]3(C)C(=CCC4[C@@]5(C)CC[C@H](O)[C@@](C)(CO)C5CC[C@]43C)[C@@H]2C1 (some centres undefined),5,-0.2%,-2.7,nt,nt,-17,nt
COCCn1c(SCc2cnc(-c3ccccc3)s2)nnc1-c1ccncc1,6,-2.3%,-0.9,-21%,-5,-3,-1
COc1ccc(-c2ccc(SCC(=O)Nc3cccc(C(C)=O)c3)nn2)cc1OC,?,0.4%,2.7,11%,?,18,-3
NS(=O)(=O)c1ccc(CCNCC(=O)N2CCC(Cc3ccccc3)CC2)cc1,2,7.5%,-4.2,?,14,-34,-10
CCn1nc(C)cc1C(=O)N1CCCC(C(=O)c2ccc(Oc3ccccc3)cc2)C1 (centres undefined),0,-0.8%,4.6,-4%,-10,-13,-2

An excerpt from above with just PINK1 modulator.
SMILES	PINK1 modulator
COc1ccc(-c2ccc(SCC(=O)Nc3cccc(C(C)=O)c3)nn2)cc1OC	0.4%
NS(=O)(=O)c1ccc(CCNCC(=O)N2CCC(Cc3ccccc3)CC2)cc1	7.5%
CCn1nc(C)cc1C(=O)N1CCCC(C(=O)c2ccc(Oc3ccccc3)cc2)C1 (centres undefined)	-0.8%

Assay outcomes deposited in PubChem by National Center for Advancing Translational Sciences (NCATS).
